# YopH inh = blocks Yersinia enterocolitica YopH tyrosine phosphatase; 140,000 tested, 0.16% active; inhibition, %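 (about 10 µM by stock and volumes)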; fluorescence Ex485/Em525; AID 898;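 active = inhibition of 50% or more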;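 also: controls were vehicle for no effect and minimum signal wells for full effect; inactives centre near -20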
# Mtb bLac sens = beta-lactam sensitization of Mtb H37Rv; 330,000 tested, 0.27% active; inhibition, % at 25 µM; AID 434955; M. tuberculosis H37Rv growth with meropenem, percent inhibition; hits of this screen are not shown here;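 active = about 74% or more and at least 40 points above the plate without the antibiotic, then above 30% in a dose series; inconclusive = first-round hits that could not be retested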;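 also: growth measured after seven days incubation then overnight dye step; 0% = bacteria only wells and 100% = bacteria with antibiotic; twin plates without the antibiotic show which effects depend on it; some results filed as inactive read as strong as hits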
# RecA splice inh = inhibitors of M. tuberculosis RecA intein splicing; 290,000 tested, 0.75% active; P9WHJ3; inhibition, %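 (about 9 µM by stock and volumes)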; cell-free RecA intein splicing, fluorescence; in the data active = inhibition above about 30%; inconclusive = no clear call, values can overlap the other calls;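 also: 0% = vehicle wells and 100% = reference inhibitor control wells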
# Target sequence (P9WHJ3 whole entry, looked up, canonical isoform): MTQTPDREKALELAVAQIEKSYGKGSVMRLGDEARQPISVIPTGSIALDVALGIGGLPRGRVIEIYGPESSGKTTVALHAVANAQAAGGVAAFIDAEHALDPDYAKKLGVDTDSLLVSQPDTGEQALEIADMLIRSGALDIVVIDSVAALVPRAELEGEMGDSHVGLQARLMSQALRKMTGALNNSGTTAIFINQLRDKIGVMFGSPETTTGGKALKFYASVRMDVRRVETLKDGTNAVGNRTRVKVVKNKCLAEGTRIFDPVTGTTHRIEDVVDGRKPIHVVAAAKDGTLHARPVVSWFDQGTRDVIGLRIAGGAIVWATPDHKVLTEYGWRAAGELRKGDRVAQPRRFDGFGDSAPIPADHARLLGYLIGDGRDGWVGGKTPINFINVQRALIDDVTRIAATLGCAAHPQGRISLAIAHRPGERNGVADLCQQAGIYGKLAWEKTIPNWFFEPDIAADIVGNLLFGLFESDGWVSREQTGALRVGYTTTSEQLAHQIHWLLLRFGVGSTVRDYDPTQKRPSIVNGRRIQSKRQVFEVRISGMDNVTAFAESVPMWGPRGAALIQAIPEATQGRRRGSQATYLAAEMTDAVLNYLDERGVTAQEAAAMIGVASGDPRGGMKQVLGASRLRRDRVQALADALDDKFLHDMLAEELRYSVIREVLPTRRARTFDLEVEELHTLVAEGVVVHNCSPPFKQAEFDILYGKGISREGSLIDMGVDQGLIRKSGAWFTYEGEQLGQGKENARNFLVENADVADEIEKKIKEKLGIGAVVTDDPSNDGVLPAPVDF
# Arbovirus inh = arbovirus infection inhibition. inhibition, % at 10 µM. arbovirus infection cell-based antiviral screen. 200,000 tested, 0.37% active;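 active = inhibition from about 30%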;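 also: bluetongue infection of BSR cells; cell survival read as ATP light after 72 h; 0% = infected wells without compound and 100% = uninfected wells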
# Mtb H37Rv = M. tuberculosis H37Rv growth inhibitors, H37Rv strain (AID 1626). M. tuberculosis H37Rv growth inhibition; higher % means a stronger effect. inhibition, % at 10 µM, or IC50 in µM where a hit was titrated. 220,000 tested, 0.95% active;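 active = confirmed in a dose series; inconclusive = inhibition above 80% but not taken into the dose series; inactive = below 80% or under 30% at every dose of the series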;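 also: bacteria incubated seven days before Alamar blue readout; 0% = bacteria only wells and 100% = bacteria with antibiotic wells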
# Arbovirus inh repeat = also measured in Arbovirus inh; calls as there; inhibition, %; measured here: 10K subset replicate screen; many hits read low in the repeat;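 first of two repeat runs on a subset; 0% = infected and 100% = uninfected wells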
# * marks the source's active call; other numbers are inactive results; ? = inconclusive; · = not tested or not shown; & = joins results of further samples. Not all compounds are listed. The share of hits here may be higher or lower than overall.
SMILES,YopH inh,Mtb bLac sens,RecA splice inh,Arbovirus inh,Mtb H37Rv,others
O=C1c2ccccc2NC2CCCCCN12 (stereo not given),-30,3,-2.1,3,-5%,
O=C(CCC(=O)N1CC2C[C@@H](C1)Cn1c2cccc1=O)NCCc1ccccc1F,·,-4,1.7,·,·,
O=C(O)C1C2C=CC(O2)C1C(=O)Nc1ccc(S(=O)(=O)Nc2ccccc2)cc1 (stereo not given),-16,6,·,9,·,
COC(=O)c1cccc(CSc2nnc(-c3ccco3)n2-c2ccccc2)c1,-42,-3,7.8,10,·,
O=[N+]([O-])c1cccc(S(=O)(=O)NCCc2ccccc2)c1,·,5,-0.1,·,·,
CCCCN(CCCC)Cc1cc2ccccc2c2c1COC2,2,-4,-1.3,4,4%,
CCOc1ccc(N(C)C(=O)CCc2nnc3ccc(N4CCOCC4)nn23)cc1,·,-2,2.4,·,·,
O=C(CN(Cc1ccc(F)cc1)C(=O)CNS(=O)(=O)c1ccc(F)cc1)NCC1CCCO1 (stereo not given),·,-5,-1.8,·,·,
CCc1sc(N(C(=O)Cc2ccccc2)c2cccc(F)c2)nc1-c1ccc(C)cc1,9,-6,-2.4,-10,-6%,
Cn1nc(C(=O)NCCCN2CCCCC2)c2c1-c1ccccc1SC2,·,5,-5.1,·,·,
CC1CCN(Cc2c(O)ccc3c(=O)c(-c4nc5ccccc5s4)c(N)oc23)CC1,-15,80,1.4,0,5%,
O=C(C1CCC(CNc2nc(=S)[nH]c3ccccc23)CC1)N1CCN(c2ccc(F)cc2)CC1 (stereo not given),·,·,1.4,16,7%,
CC(=O)Nc1ccc2[nH]c(C)cc(=O)c2c1,3,-5,0.3,-2,3%,
CC(=O)OCC(CCn1cnc2cnc(N)nc21)COC(C)=O,·,32,25,4,-7%&5%,
CCOC(=O)N1CCC(NS(=O)(=O)c2ccc3c(c2)oc(=O)n3C)CC1,-45,-4,0.5,-3,-3%,
CN(C)C(CNC(=O)Cc1ccc(Br)cc1)c1ccccc1 (stereo not given),·,-4,4.2,·,·,
COc1ccc(CCN(Cc2cc3cc(C)cc(C)c3nc2Cl)C(=O)C2CC2)cc1,-29,1,12,9,·,
CN1C(=O)/C(=C\N2CCc3ccccc32)C(=O)NC1=S,-18,1,-4.6,-12,4%,
Cc1noc(C)c1COc1ccc(C(=O)OCC(=O)Nc2ccc3c(c2)OCO3)cc1,-115,92,0.1,1,52%,
COc1cccc(OCCN2CCN(c3ncnc4c3cnn4-c3ccccc3)CC2)c1,-13,100,7.6,-8,37%,
CCN(CC)S(=O)(=O)c1ccc(Cl)c(C(=O)Nc2cc(C)nn2-c2ccccc2)c1,-2,4,2.6,4,3%,
Cc1cccc([C@@H]2[C@@H]3C(=O)N(Cc4ccccc4)C(=O)[C@@H]3[C@]3(Cc4ccc(Cl)cc4)C(=O)N(c4cccc(Br)c4)C(=O)N23)c1,·,-3,-1.1,·,·,
COc1ccc(OC)c(C2=Nn3c(nnc3-c3cc(OC)c(OC)c(OC)c3)SC2)c1,-40,4,-2.4,-17,15%,
Cc1ccccc1-n1ncc2c1CC(C)(C)CC2NC(=O)C1=CC(=O)CC(C)(C)O1 (stereo not given),·,-1,0.6,·,·,
CCCCn1c(N)c(N(CCC(C)C)C(=O)c2cc(-c3ccco3)nc3ccccc23)c(=O)[nH]c1=O,·,-6,1.5,·,·,
# Carrying on.
SMILES,YopH inh,Mtb bLac sens,RecA splice inh,Arbovirus inh,Mtb H37Rv,others
O=C(COC(=O)/C=C/c1ccc(Cl)cc1Cl)NCCC1=CCCCC1,-54,9,-4.1,13,10%,
CCC1(C)Nc2ccccc2C(=O)N1O (stereo not given),-12,-3,-5.9,17,-10%,
CC(=O)c1ccc(N(C(=O)CNC(=O)c2ccco2)C(C(=O)NC2CCCC2)c2ccc(C)o2)cc1 (stereo not given),·,2,2.8,·,·,
CCC[C@@H](CN[C@@H](CNC)C(C)C)NCCCCc1ccccc1,·,-10,1.3,·,·,
Cc1cccc(NC(=O)c2ccc(C(=O)c3ccccc3)o2)c1,·,3,18,-1,-1%,
O=C(CCc1nnc2ccc(NCc3ccco3)nn12)Nc1ccccc1F,·,3,1.1,·,·,
Cc1ccc(C)c2[nH]c(=O)c(CCNC(=O)c3ccc(S(=O)(=O)N(C)C)cc3)cc12,-2,-2,-0.8,0,8%,Arbovirus inh repeat=-1
CC(CCc1ccccc1)NC(=O)c1cccnc1 (stereo not given),-2,4,-1.9,-3,2%,
C/C(=N\NC(=O)C1CC1c1ccccc1)c1ccc(C)s1 (stereo not given),3,4,1.1,-1,-6%,
CC(C)CC(COCc1cccc(C(F)(F)F)c1)N1CCN(C(=O)c2cccc(C(F)(F)F)c2)CCC1=O (stereo not given),-22,-6,2.5,-33,3%,
Cn1cc(CC(=O)NCCCN2CCCC2)c2ccccc21,-7,5,0.5,10,-9%,
Cc1nnsc1NC(=O)OCc1ccc(Cl)cc1Cl,-29,-7,-1.7,3,0%,
Cc1ccc(CC2SC(N)=NC2=O)cc1 (stereo not given),·,-8,-2.3,-4,-2%,
N#Cc1c(/N=C/N2CCOCC2)sc2c1CCCCC2,-36,28,-1.8,-4,-4%,
CCOC(=O)Cc1csc(NC(=O)Cn2cnc3c2c(=O)n(C)c(=O)n3C)n1,·,-6,-1.2,1,-1%,
O=C(Nc1nc2c(s1)CN(Cc1ccccc1)CC2)C1CCCC1,·,1,-5.3,5,6%,
O=C(c1cccc(NS(=O)(=O)c2ccccc2)c1)N1CCCC1,·,-2,2.6,·,·,
CN1CCN(CCCCOc2ccccc2C=O)CC1,·,-2,3.7,-32,4%,
COc1ccccc1-c1nc(C#N)c(N2CCN(C(=O)c3ccco3)CC2)o1,·,-4,2.9,·,·,
COC(=O)c1ccc(C)c(NC(=O)CCNC(=O)c2ccc([N+](=O)[O-])cc2)c1,-20,-3,6.9,-2,-8%,
CC(=O)Nc1ccc(-c2csc(NNC(=O)c3ccccc3)n2)cc1,·,5,1.3,3,8%,
CCOc1ccccc1NC(=O)COC(=O)c1ccccc1SCC(=O)N1CCCC1,·,-4,-2.5,·,·,
Cc1ccc(SCCN2CCC(C(C)(C)C)CCC2=O)cc1 (stereo not given),·,-1,0.8,·,·,
COc1ccc(CCC(C)NC2CCCCCCC2)cc1 (stereo not given),·,-3,0.5,·,·,
COc1ccc(Nc2c3c(nc4ccccc24)CCC3)cc1,·,6,5.5,·,·,
# (cont.)
SMILES,YopH inh,Mtb bLac sens,RecA splice inh,Arbovirus inh,Mtb H37Rv,others
Cc1nc2ccc(NC(=O)c3ccc([N+](=O)[O-])cc3[N+](=O)[O-])cc2s1,·,100,-21,-5,15%,
COC(=O)c1ccc(COc2cc(C)cc3oc(=O)c4c(c23)CCCC4)o1,-49,-3,-0.5,7,-3%,
COc1cc(/C=N/NC(=O)c2ccccn2)ccc1OC(=O)c1ccc(Br)cc1,·,97,-3.1,·,·,
O=S(=O)(c1cccc(NC(=S)N2CCN(c3ccccc3F)CC2)c1)C(F)F,-21,-6,0.6,14,2%,
CN(C(=O)c1ccc2c(=O)n3c(nc2c1)CCCCC3)c1cccc(Cl)c1,·,-2,4.2,·,·,
O=C(CCCOc1ccccc1)OCn1nnc2ccccc2c1=O,·,100,-6.6,19,15%,
Cc1ccc(CN2CCC(=O)N2)cc1,·,-4,-2.2,·,·,
Cn1c(=O)c2c(ncn2Cc2ccccc2)n(C)c1=O,14,-1,-0.3,3,-8%,
O=C(COc1ccccc1F)Nc1ccc(S(=O)(=O)Nc2nccs2)cc1,·,9,12,·,·,
CCCCn1nnc(NC(=O)CCC)n1,-7,-2,2.5,6,-9%,
O=C(COc1ccc(S(=O)(=O)N2CCCC2)cc1Cl)NCc1ccco1,3,1,-0.1,1,-7%,
CCOC(=O)c1ccc(NC(=O)c2ccc(CN3CCc4ccccc4C3)cc2)cc1,·,77,-0.5,·,·,
Cc1c(NC(=O)c2ccc(NC(=O)C3CC3)cc2)cccc1C(=O)O,·,-6,-2.1,·,·,
O=c1c2c(nc3nc(NCc4cccc5ccccc45)[nH]n13)CCC2,·,61,1.0,30,-8%,
O=C(CSc1nc2ccccc2c(=O)n1-c1ccc(F)cc1)Nc1cc(S(=O)(=O)N2CCOCC2)ccc1Cl,2,?,2.0,-7,-6%,
Cc1ccc2[nH]c(=O)c(CN(CCCO)S(=O)(=O)c3cccc4nsnc34)cc2c1,-41,-2,-2.2,2,0%,
COc1ccc(CC(=O)NNC(=O)c2ccc(Br)o2)cc1,·,-3,6.6,·,·,
O=C(NCCN1CCOCC1)Nc1ccc(Cl)cc1,1,-13,3.4,1,3%,
O=C1NC(=S)N/C1=C/C=C/c1ccccc1,·,1,2.7,-3,12%,
COc1ccc(CCNC(=O)/C(C#N)=C2\N=C(NC(=O)c3ccco3)c3ccccc32)cc1,·,9,0.5,·,-14%,
Cc1ccc(N2CCN(S(=O)(=O)c3ccc4oc(=O)ccc4c3)CC2)cc1Cl,·,2,0.5,·,·,
COc1ccc(Cl)cc1C(=O)NNC(=O)COC(=O)CCN=C1NS(=O)(=O)c2ccccc21,·,-7,-1.4,·,·,
CC(C)Nc1nc(N)c(C(=O)C23CC4CC(CC(C4)C2)C3)s1,·,41,0.2,·,1%,
O=C(c1cccs1)N1CCCC(N2CCN(c3cccc(C(F)(F)F)c3)CC2)C1 (stereo not given),·,-10,2.0,·,·,

# Entries listed so far with fluorine, in the order listed:
SMILES,YopH inh,Mtb bLac sens,RecA splice inh,Arbovirus inh,Mtb H37Rv,others
O=C(CCC(=O)N1CC2C[C@@H](C1)Cn1c2cccc1=O)NCCc1ccccc1F,·,-4,1.7,·,·,
O=C(CN(Cc1ccc(F)cc1)C(=O)CNS(=O)(=O)c1ccc(F)cc1)NCC1CCCO1 (stereo not given),·,-5,-1.8,·,·,
CCc1sc(N(C(=O)Cc2ccccc2)c2cccc(F)c2)nc1-c1ccc(C)cc1,9,-6,-2.4,-10,-6%,
O=C(C1CCC(CNc2nc(=S)[nH]c3ccccc23)CC1)N1CCN(c2ccc(F)cc2)CC1 (stereo not given),·,·,1.4,16,7%,
O=C(CCc1nnc2ccc(NCc3ccco3)nn12)Nc1ccccc1F,·,3,1.1,·,·,
CC(C)CC(COCc1cccc(C(F)(F)F)c1)N1CCN(C(=O)c2cccc(C(F)(F)F)c2)CCC1=O (stereo not given),-22,-6,2.5,-33,3%,
O=S(=O)(c1cccc(NC(=S)N2CCN(c3ccccc3F)CC2)c1)C(F)F,-21,-6,0.6,14,2%,
O=C(COc1ccccc1F)Nc1ccc(S(=O)(=O)Nc2nccs2)cc1,·,9,12,·,·,
O=C(CSc1nc2ccccc2c(=O)n1-c1ccc(F)cc1)Nc1cc(S(=O)(=O)N2CCOCC2)ccc1Cl,2,?,2.0,-7,-6%,
O=C(c1cccs1)N1CCCC(N2CCN(c3cccc(C(F)(F)F)c3)CC2)C1 (stereo not given),·,-10,2.0,·,·,

# Bioassay records from PubChem BioAssay.
